S aureus helic: S. aureus DNA helicase inhibition. purified S. aureus helicase, fluorescence unwinding assay; about half of the hits fall short of the stated cut. inhibition, %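 (tested at about 80 µM)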. 120,000 compounds, 0.05% hits. AID 485395;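 active = both duplicates at 50% or more, or one of them with a favoured structure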;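 note: 0% = mean of negative control wells and 100% = mean of positive control wells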
MgrA-DNA mod: alters Staphylococcus aureus MgrA binding to DNA; 84,000 compounds, 0.13% hits; fluorescence polarization; inhibition, %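 (about 10 µg/mL by stock and volumes)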;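 active = above 50% in either of two replicates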;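 note: 0% = protein plus DNA without compound and 100% = DNA alone without protein; higher means less MgrA bound to DNA so lower polarization; one replicate is shown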
Starred values were filed as active, the others as inactive; · = not tested or not shown; & = joins results of further samples.

Sample of the layout, 4 compounds:
Results follow in this order: MgrA-DNA mod | S aureus helic
Cc1[nH]c(=S)[nH]c(=O)c1Oc1ccccc1
  5.8 | ·
O=C1Nc2ccccc2OC1CC(=O)N1CCN(Cc2ccc3c(c2)OCO3)CC1 (stereo unspecified)
  · | -9
O=C1/C(=C/c2ccccc2)SC(=Nc2ccc(O)cc2)N1c1ccc(O)cc1
  · | 8
CNc1nnc(-c2ccccc2)s1
  -0.1 | 12

Main list, from the first entry:
Results follow in this order: MgrA-DNA mod | S aureus helic
Cc1[nH]c(=S)[nH]c(=O)c1Oc1ccccc1
  5.8 | ·
O=C1Nc2ccccc2OC1CC(=O)N1CCN(Cc2ccc3c(c2)OCO3)CC1 (stereo unspecified)
  · | -9
O=C1/C(=C/c2ccccc2)SC(=Nc2ccc(O)cc2)N1c1ccc(O)cc1
  · | 8
CNc1nnc(-c2ccccc2)s1
  -0.1 | 12
CCn1nc(C)c(Br)c1-c1nc(-c2ccccc2)no1
  -0.1 | ·
Cc1cc(NC(=O)C2CC(=O)N(c3ccccc3C)C2)no1 (stereo unspecified)
  -2.2 | 16
CCC(=O)N1c2ccccc2NC2=C(C(=O)CC(c3ccccc3)C2)C1c1ccccc1 (stereo unspecified)
  0.2 | -7
O=C(O)[C@@H]1CSC(c2cccc(O)c2)N1 (stereo partly specified)
  0.0 | ·
O=C(CN1C(=O)CCC1=O)NC(=S)Nc1cccc(-c2nc3ccccc3o2)c1
  · | 2
COc1cc(OC)nc(NCC(NC(=O)c2ccccc2)C(N)=O)n1 (stereo unspecified)
  -1.6 | ·
CCOC(=O)c1c(NC(=O)c2ccn(CC)n2)sc2c1CCC2
  1.1 | 18
Cc1cccc(NC(=O)c2cc3sccc3n2C)c1C
  -0.6 | 18
CC(C)(CCCCC(C)(C)C(=O)O)C(=O)O
  4.3 | ·
Cc1cc(NC(=O)c2ccc3c(c2)C(=O)N(Cc2ccccc2)C3=O)no1
  · | 2
CS(=O)(=O)N(CC(N)=O)C1CCCCC1
  -0.4 | 2
NC(=O)c1ccc(NC(=O)COC(=O)/C=C/c2ccc(Cl)cc2)cc1
  -0.5 | -19
O=C(OCC1CC(c2ccccc2)=NO1)c1ccc2ccccc2n1 (stereo unspecified)
  -2.5 | ·
CCOC(=O)c1sc2nc(CN3CCCCC3)nc(N3CCCC3)c2c1C
  · | -10
CC(Sc1nnc(N)s1)C(=O)NCCC1=CCCCC1 (stereo unspecified)
  · | 5
CC1CCc2onc(C(=O)N(C)c3ccccc3)c2C1 (stereo unspecified)
  · | 10
CC(C)CC(C(=O)c1ccccc1)c1ccccc1 (stereo unspecified)
  -1.2 | ·
O=C(Nc1ccc(F)cc1)c1cc(=O)[nH]c2ccccc12
  7.0 | 11
Cc1ccc2c(c1)=C(c1sc(N)nc1O)C(=O)N=2
  3.5 | 4
CCC1(O)CC(C)N(C)CC1C (stereo unspecified)
  · | 1
CC(C)C(=O)NCCCc1nc2ccccc2n1C
  -0.1 | -1
O=C(NCCN1CCOCC1)c1c(O)nc2ccccn2c1=O
  · | -16
Cc1ccc2oc(=O)c3cnn(CC(=O)Nc4cc(C)on4)c3c2c1
  · | 8
O=C(c1ccc(Cl)c(Cl)c1)c1nn2c(nc(=O)c3ccccc32)s1
  1.5 | ·
COc1ccc(Cc2nnc(Nc3ccc(Cl)cc3Cl)o2)cc1OC
  · | -6
Cc1sc2ncnc(SCC(=O)N3CCOCC3)c2c1C
  · | -17
CCc1ccc(NC(=O)Cn2c(=O)n(C3CCCCC3)c(=O)c3cccnc32)cc1
  11 | 13
Cn1c(-c2c(N)n(Cc3ccccc3)c3nc(C#N)c(C#N)nc23)nc2ccccc21
  · | -20
COc1ccc(CC(=O)NCC2CCCO2)cc1 (stereo unspecified)
  · | 8
Cc1oc(-c2ccccc2)nc1C(=O)N1CCN(c2ccccc2)CC1
  · | 5
CS(=O)(=O)N1CCc2cc(C(=O)Cn3nc(C(=O)O)c4ccccc4c3=O)ccc21
  · | 13
NNc1nccc(C(F)(F)F)n1
  · | -17
N#Cc1ccc(/C=N/n2c(-c3ccco3)csc2=Nc2ccccc2)cc1
  · | -73
CCC1CCCCN1C(=O)c1cc(-c2ccc(Cl)c(Cl)c2)on1 (stereo unspecified)
  0.8 | 11
COc1ccc(NC(=O)n2ccc(C(=O)N3CCOCC3)n2)cc1
  -2.1 | 10
CCNc1nc2ccccc2n1Cc1cccc(Cl)c1
  -1.1 | ·
Nc1nc(SCCOc2ccccc2)nc(-c2ccncc2)n1
  · | -5
CNC(=S)NN=C1CCCCCC1
  -3.3 | ·
O=C1C=CC(=O)N1c1ccc2ccccc2c1
  · | 13
O=S(=O)(c1cccc(-c2nnc(SCc3cn4ccsc4n3)n2-c2ccccc2)c1)N1CCCC1
  · | -13
CCCn1c(N)c(C(=O)CSc2ncn[nH]2)c(=O)n(C)c1=O
  · | 6
CC(C)(C)c1cc(NC(=O)c2ccc(C#N)cc2)on1
  · | -6
c1coc(-c2nc3ccc4ccccc4c3c3c2CCCC3)c1
  12 | -7
N#CC1(c2ccccc2C2(C#N)CC2)CC1
  0.1 | ·
Cc1cccc(N=Cc2cccc(O)c2)c1
  1.6 | -7
CCC1(C)CC(=O)c2c(ccc3oc(C(=O)O)c(C)c23)O1 (stereo unspecified)
  · | -13
CN1CCc2c(OCC(=O)N3CCC(Cc4ccccc4)CC3)cccc2C1=O
  · | 12
Cn1nc(C(=O)Nc2cc(C(F)(F)F)ccc2N2CCOCC2)c2ccccc2c1=O
  · | -13
COC(=O)c1ccccc1NC(=O)NC1CCCCC1
  -0.1 | 1
COc1cccc(C(=O)CC(C#N)c2ccc(F)cc2)c1 (stereo unspecified)
  -1.7 | ·
Cc1cc(C)cc(OC(C)C(=O)NCCCn2ccnc2)c1 (stereo unspecified)
  -2.6 | 7
O=C1CS(=O)(=O)N(Cc2ccccc2)c2cc(Cl)ccc21
  -2.2 | ·
Cc1cc(C)c(C#N)c(SC(F)F)n1
  · | -12
COc1cc2c(C#N)c(OC)nc(N)c2c(N)n1
  · | -2
CCOC(=O)/C(C#N)=C/c1sccc1C
  · | -14
CCOc1ccccc1N1CCN(C(=O)c2cc3c(s2)CCC3)CC1
  -4.5 | -14

Going on with the list:
Results follow in this order: MgrA-DNA mod | S aureus helic
CC1(C)CC(=O)C2=C(C1)Nc1ncnn1C2c1ccccc1 (stereo unspecified)
  · | 16
Cc1noc(C)c1-c1nnc(-c2cccc(C(F)(F)F)c2)o1
  · | -19
COC(=O)c1c(C)nn(C(=O)c2ccc(Cl)cc2)c1-c1snnc1C
  · | 23
O=C(CSc1nncn1-c1ccccc1)CSc1nncn1-c1ccccc1
  · | 19
S=C1NCN(CCc2ccncc2)CN1
  -1.2 | ·
C/C(=N\NC(=S)Nc1ccccc1C)c1ccc(O)cc1
  · | 27
O=C(CCCSc1nc2ccccc2[nH]1)NC1=NCCS1
  · | 32
O=C1CCCCCN1CP(=O)(O)CN1CCCCC1
  -4.0 | 5
CCN(CCN(C)C)C(=O)Cn1nc(Cc2ccncc2)c2ccccc2c1=O
  · | 11
CCOc1ncccc1C(=O)OCC(=O)Nc1ccc(Br)c(C)c1
  · | -7
Cc1cc(=O)oc2cc(OC(C)C(=O)Nc3ccccc3)ccc12 (stereo unspecified)
  -2.8 | 8
CC(=O)N(O)CCCCCNC(=O)CCC(=O)N(O)CCCCCNC(=O)CCC(=O)N(O)CCCCCN
  4.4&3.5 | ·
Cc1cnc(NC(=O)c2ccccc2C(F)(F)F)s1
  · | 8
COc1cc(/C=C2/C(=O)NC(=O)N(c3ccc(C)cc3)C2=O)cc(Br)c1OC
  7.3 | ·
COc1ccc(S(=O)(=O)N(CC#N)Cc2ccco2)cc1OC
  · | -18
COC(=O)c1cc2c(ccn2-c2ccc(F)cc2)n1CC(=O)N1CC(C)CC(C)C1 (stereo unspecified)
  -0.6 | 10
COC(=O)c1cc(-c2ccc(C=C3C(=O)N(C)C(=O)N(C)C3=O)o2)ccc1Cl
  -0.1 | ·
COc1ccc(OC)c(N2C(=O)CC(Sc3nc4ccccc4s3)C2=O)c1 (stereo unspecified)
  · | 5
CC1(C)CO/C(=C/C(=O)c2ccncc2)N1
  -0.1 | -1
CNCC(O)Cn1c2c(c3ccccc31)CCCC2 (stereo unspecified)
  -0.4 | 4
Cc1ccc(NC(=O)C2CCCN(S(=O)(=O)c3c(C)n[nH]c3C)C2)cc1 (stereo unspecified)
  · | 10
Cc1cc(NCC2CC2)n2nc(Nc3cc(Cl)ccc3C)nc2n1
  -1.1 | ·
Cc1cc(/C=C2/C(=O)NC(=S)N(Cc3ccco3)C2=O)c(C)n1C1CCCCC1
  15 | -76
O=C(c1ccccc1)c1cn(Cc2cccc(F)c2)c2ccc(F)cc2c1=O
  · | -9
O=C(c1cccc(Cl)c1)N(Cc1cc2ccccc2[nH]c1=O)C1CCCCC1
  -1.6 | -1
CN(C(=O)CSc1nnnn1C)c1ccccc1
  · | 9
COc1ccc(C(=O)Nc2nncs2)cc1S(=O)(=O)N1CC(c2ccccc2)CC1=O (stereo unspecified)
  · | 3
COc1ccc(CNC(=O)c2cnn3cc(Br)cnc23)cc1
  -2.6 | 4
CC(=O)Nc1c(C(=O)O)[nH]c2ccccc12
  -5.0 | 2
Cn1cc(C(=O)NCC2COc3ccccc3O2)c(=O)c2cc(S(=O)(=O)N3CCCCC3)ccc21 (stereo unspecified)
  · | -15
CCOC(=O)c1c(NC(=O)c2ccc(C)c([N+](=O)[O-])c2)sc(C(=O)Nc2ccccc2C(F)(F)F)c1C
  -2.3 | ·
O=C(NCC1c2ccccc2CCN1C(=O)CN1CCOCC1)C1CCCCC1 (stereo unspecified)
  · | -16
Cc1ccc2cc(C#N)c(NCc3ccccc3)nc2c1
  2.0 | -6
Cc1ccccc1NC(=O)c1c(NC(=O)c2ccco2)sc2c1CCC2
  3.0 | -1
Cc1ccsc1CCNC(=O)c1cc(-c2ccc(Cl)cc2)n[nH]1
  -0.4 | 9
Cc1cccc(Nc2ncc3ncn(-c4cccc(C)c4)c3n2)c1
  · | 1
Cc1cc(C(=O)NN)ccc1[N+](=O)[O-]
  -0.6 | ·
Brc1ccccc1C1OCC2(CO1)COC(c1ccccc1Br)OC2 (stereo unspecified)
  -1.4 | 9
COc1ccc(C(=S)N2CCC(C)CC2)cc1
  6.8 | 21
Cc1ccoc1C(=O)Nc1ccccc1C(=O)O
  2.0 | -8
O=C1C(C=NCc2ccco2)=C(O)c2ccccc21
  3.8 | 10
CS(=O)(=O)Nc1ccc(/C(N)=N/OC(=O)Nc2ccccc2)cc1
  · | -10
COc1ccc(Cn2ccc3nc(C)c(C(=O)Nc4ccccc4)cc3c2=O)cc1
  · | -9
COC(=O)C(Cc1c[nH]c2ccccc12)NS(=O)(=O)c1ccc(C)cc1 (stereo unspecified)
  -7.2 | ·
O=C(O)C1CCN(c2cnccn2)CC1
  · | 12
CC1(CO)CSC(Nc2ccc(F)cc2)=N1 (stereo unspecified)
  -1.6 | ·
Cc1ccc(-c2c(O)c3cc(C)c(C)cc3c3oc(=O)sc23)cc1
  0.5 | 6
CC1CCN(Cn2c(=S)oc3ccccc32)CC1
  1.7 | 6
COc1ccc(C2=N/C(=C\c3cc(Br)c(OC(C)=O)c(OC)c3)C(=O)O2)cc1[N+](=O)[O-]
  0.1 | ·
Cc1cc(C(=O)NCc2ccc3c(c2)OCO3)nc2c1c(C)nn2-c1ccccc1Cl
  8.6 | 4
CC1=C(C)C(=O)C(N2CCN(Cc3ccccc3)CC2)=CC1=O
  · | 19
Cc1c(C(=O)NCCCN2CCCCC2)oc2ccc3c(c12)C(O)CC(C)(C)O3 (stereo unspecified)
  · | 37
CCOC(=O)CSc1nnc(CNC(=O)Cc2ccccc2)n1-c1ccc(OC)cc1
  · | 5
Cn1c(SCC(=O)N2c3ccccc3CCc3ccccc32)nnc1C1CC1
  2.6 | 12
Cc1ccccc1NC(=O)NC1CCN(C(C)C)CC1
  -0.2 | 19
C=CCOc1ccc(CNc2ccc3[nH]c(=O)[nH]c3c2)cc1
  · | 10
CCOC(=O)CCc1ccc(C(=O)C(F)(F)F)o1
  4.0 | -5
O=C(Nc1cc2ccccc2oc1=O)c1ccc(Cl)cc1
  1.9 | -9
Cc1ccc(NC(=O)C(OC(=O)c2c(C)noc2C)c2ccccc2)cc1Cl (stereo unspecified)
  · | -7
O=S1(=O)CC2SC(=S)N(c3cccc(O)c3)C2C1 (stereo unspecified)
  · | 8

(further entries)
Results follow in this order: MgrA-DNA mod | S aureus helic
OC1CCN(c2cc(-c3ccccc3)nc3cc(-c4cccc(Cl)c4)nn23)CC1
  -2.5 | 10
COC(=O)c1cc(S(=O)(=O)NC(C)(C)C)cn1C
  0.8 | 8
Cc1nnsc1-c1nnc(SCC(=O)c2ccc(F)cc2)n1C1CC1
  -2.0 | ·
CCNC(=O)NC(=O)C(c1ccccc1)n1nc(C(=O)O)c2ccccc2c1=O (stereo unspecified)
  · | 16
COc1ccc(N2CCN(C(=O)c3ccc(CS(=O)c4ccccc4)o3)CC2)cc1 (stereo unspecified)
  · | -16
N#Cc1c(N)ccn(Cc2ccccc2)c1=O
  1.6 | ·
CCSc1nnc(NC(=O)CCC(=O)OC2CCC(C)C(C)C2)s1 (stereo unspecified)
  -0.6 | -14
O=C(Nc1nccs1)C1CCN(C(=O)c2ccc(Cl)cc2)CC1
  · | 4
CS(=O)(=O)NCc1cccc2ccccc12
  0.8 | 0
Cc1nc2cc(C(=O)O)ccc2n1-c1ccc(F)c(F)c1
  · | 7
NNC(=O)c1ccc(Oc2cc(Cl)cc(Cl)c2)o1
  -0.4 | ·
COc1ccc(/C=C/C(=O)Nc2cc(C)nc3ccccc23)cc1OC
  -0.8 | 9

Complete entries as entered above. Values in the order: MgrA-DNA mod | S aureus helic
Cc1nc2cc(C(=O)O)ccc2n1-c1ccc(F)c(F)c1 is entered as · | 7
CCSc1nnc(NC(=O)CCC(=O)OC2CCC(C)C(C)C2)s1 (stereo unspecified) is entered as -0.6 | -14

Screening results (PubChem BioAssay)

The list is partial. The share of hits here may be higher or lower than overall.
